Ecoli rRNA inh = inhibitors of bacterial rRNA selective over humanized ribosomes; E. coli WT GFP vs humanized-ribosome RFP mutants, fluorescence, 24 h; hits give low values; DMSO median 0, no signal -100; GFP signal change (wild-type ribosome), % (test concentration not listed); 1.6% of 350,000 active; AID 720706;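 active = significant combined selectivity score with lowered wild-type GFP, culture density cut under 30%, mutant RFP and density less affected; inactive = any of these conditions unmet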; note: one replicate is shown; some compounds called inactive have numbers as strong as hits
FGF22 binding = FGF22 (human) thermal shift binding. 1.5% of 340,000 active. calls only at 9.99 µM. recombinant FGF22 thermal shift, SYPRO orange fluorescence; percent of sucrose octasulfate shift, DMSO zero. Q9HCT0;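 active = melting point raised past a set limit in the mean and every replicate; inconclusive = no clear call; three in four hits are not shown here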
Target sequence (Q9HCT0 whole entry, looked up): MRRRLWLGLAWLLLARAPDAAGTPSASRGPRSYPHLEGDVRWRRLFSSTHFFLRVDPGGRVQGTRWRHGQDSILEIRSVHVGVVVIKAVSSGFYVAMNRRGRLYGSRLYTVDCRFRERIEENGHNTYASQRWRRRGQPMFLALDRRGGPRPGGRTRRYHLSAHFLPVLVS
Ecoli growth = E. coli growth inhibition; Escherichia coli growth, OD600, 23 h; hits give low values; OD600 absorbance (concentration not given with the values); 0.21% of 330,000 active; AID 1053175;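 active = OD600 absorbance below the run mean of sample wells minus 3.6 SD, in any replicate, cut at about 0.56 in these data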;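 note: stock transfer was 300 nL into about 60 µL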
MLL AF4-AF9 inh = blocks AF4 peptide binding to human AF9; 0.47% of 350,000 active; inhibition, % at 10 µM; AID 651704; AlphaScreen, biotin-AF4 peptide binding to FLAG-AF9; P42568;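 active = every replicate reaching a set inhibition limit, whatever the replicate mean, cut at about 25% in these data; inconclusive = mean inhibition reaches that limit but some replicates miss it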;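 note: 0% = plate neutral control median and 100% = total signal loss; the record names both 10 and 1 µM as test concentration; the first replicate is given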
Vif A3G = inhibitors of Vif binding to APOBEC3G peptide, primary screen, biochemical, TR-FRET, GST-Vif 1-94, biotin-A3G peptide, dose response retest (AID 1117319). TR-FRET GST-Vif / biotin-A3G peptide binding; higher % means a stronger effect; test concentration not given here; strong numbers were not always called active. inhibition, %; hits with a dose series show IC50 in µM. 0.57% of 260,000 active;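 active = above the screen mean plus three standard deviations and confirmed in dose response; inconclusive = results disagree or hit not tested in dose response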;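 note: Vif residues 1-94 fused to GST binding biotinylated APOBEC3G peptide 110-148; 0% = full assay without inhibitor and 100% = GST in place of GST-Vif; retest series ran down from 100 µM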
ALR inh = inhibitors of human sulfhydryl oxidase ALR; AID 485317; inhibition, % (test concentration not listed); 3.8% of 290,000 active; P55789; purified ALR, DTT oxidation, H2O2 HRP-luminol luminescence;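 active = mean and each replicate at 75% or more; inconclusive = only one of the two met; inactive = neither met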;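 note: stock transfer was 7.5 nL into about 7.5 µL; 0% = neutral wells and 100% = wells with inactivated enzyme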
Target sequence (P55789 whole entry, looked up): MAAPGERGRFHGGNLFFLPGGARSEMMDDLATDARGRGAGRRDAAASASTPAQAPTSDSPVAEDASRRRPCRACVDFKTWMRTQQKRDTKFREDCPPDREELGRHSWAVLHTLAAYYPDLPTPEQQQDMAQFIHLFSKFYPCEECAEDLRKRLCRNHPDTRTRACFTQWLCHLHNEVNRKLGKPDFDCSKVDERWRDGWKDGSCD
HNF4A DNA FP = change in binding of human HNF4 alpha to DNA; 0.3% of 360,000 active; activity change, % at 10 µM; AID 1224865; HNF4a-FITC DNA binding, fluorescence polarization, 1 h; P41235; in the data active = activity change above about 30%, passing the limit was not always enough;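 note: controls were the assay level and a saturating level of protein; the project sought stronger binding though the title names inhibitors; some compounds called inactive have numbers as strong as hits; positive values seem to mean higher polarization but the record does not say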
Target sequence (P41235 whole entry, looked up): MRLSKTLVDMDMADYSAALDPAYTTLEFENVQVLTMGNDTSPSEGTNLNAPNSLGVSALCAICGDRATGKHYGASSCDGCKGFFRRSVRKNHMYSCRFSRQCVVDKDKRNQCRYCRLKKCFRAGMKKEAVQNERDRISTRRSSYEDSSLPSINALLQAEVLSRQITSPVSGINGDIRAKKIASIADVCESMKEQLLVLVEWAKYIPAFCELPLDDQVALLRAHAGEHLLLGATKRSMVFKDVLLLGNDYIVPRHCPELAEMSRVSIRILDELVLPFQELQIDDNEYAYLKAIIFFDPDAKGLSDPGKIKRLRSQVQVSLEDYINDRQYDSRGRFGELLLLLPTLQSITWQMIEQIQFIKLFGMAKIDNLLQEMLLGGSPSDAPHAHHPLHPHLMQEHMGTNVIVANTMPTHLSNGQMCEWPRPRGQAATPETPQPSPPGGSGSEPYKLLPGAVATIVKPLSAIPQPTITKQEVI
Ecoli rRNA inh OD600 = second read-out of Ecoli rRNA inh, no call of its own (marks repeat the call); OD600 change, %; measured here: OD600 growth;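 optical density of the mix in the first replicate; 0 = DMSO median and -100 = no signal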
Ecoli rRNA inh RFP = further read-out of Ecoli rRNA inh, marked with its call; RFP signal change, %; measured here: RFP humanized mutant strains;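 first replicate; 0 = DMSO median and -100 = no signal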
* = called active by the depositor; i = inactive; ? = inconclusive; nt = not tested or not shown.

SMILES | Ecoli rRNA inh | Ecoli rRNA inh OD600 | Ecoli rRNA inh RFP | FGF22 binding | Ecoli growth | MLL AF4-AF9 inh | Vif A3G | ALR inh | HNF4A DNA FP
O=C(Nc1ccc(N2CCCC2)c(Cl)c1)c1ccccc1[N+](=O)[O-] | 1 | 6 | -1.3 | i | 0.65 | 3.5 | 30% | 5 | 1.4
Cc1ccc(C)c(S(=O)(=O)N2CCN(C(=O)Cn3c(=O)cnc4ccccc43)CC2)c1 | -2 | -7 | 0.6 | i | 0.67 | -0.4 | 0% | -5 | -3.9
Nc1ccccc1C(=O)Nc1cccc(C(=O)O)c1 | 13 | -6 | 0.7 | i | 0.64 | -29 | -2% | nt | 2.2
C[C@@H]1CCCCO[C@H](CN(C)Cc2ccc3c(c2)OCO3)[C@H](C)CN([C@@H](C)CO)C(=O)c2cc(NC(=O)Nc3ccc(C(F)(F)F)cc3)ccc2O1 | -3 | -7 | 3.9 | i | nt | 4.9 | nt | nt | nt
COc1ccc(S(=O)(=O)N(CC(=O)NN=C2CCN(C)CC2)c2cc(Cl)ccc2OC)cc1OC | nt | nt | nt | i | 0.65 | -1.4 | -3% | 6 | 0.6
N#CC(=C=[N-])/C=C(\C(=O)c1ccccc1)[n+]1ccccc1 | 24 | 19 | -0.2 | i | nt | -3.2 | nt | nt | 4.1
Cc1ccc(C(=O)/C=C/c2cn(CC(O)CN3CCOCC3)c3ccccc23)cc1 (centres undefined) | nt | nt | nt | nt | 0.66 | nt | -7% | nt | 25
COc1cc2c(cc1OC)CN(C(=O)c1cc(C3CC3)nn1-c1ccccc1)CC2 | -35 | -32 | 0.8 | i | 0.71 | 2.1 | -15% | -2 | -0.8
O=C(NCc1ccccc1)c1cccnc1Sc1ccccc1 | 5 | 29 | 2.2 | i | 0.69 | -0.8 | 3% | nt | 2.0
Cc1nc(NC(=O)CSc2nc3cccnc3n2Cc2ccccc2)sc1C | nt | nt | nt | nt | 0.66 | nt | ? | 39 | 3.6
CN1CCN(C(=O)C[C@@H]2C=C[C@@H](NC(=O)c3ccc4c(c3)OCO4)[C@@H](CO)O2)CC1 | -3 | -3 | -0.5 | i | nt | -8.7 | nt | nt | nt
Cc1noc(C)c1COc1cccc(C(=O)OC(C)C(=O)Nc2ccc3c(c2)OCO3)c1 (centres undefined) | nt | nt | nt | nt | 0.73 | nt | 2% | -9 | 2.6
Cc1ccc(S(=O)(=O)N[C@H]2C=C[C@H](CC(=O)NCc3ccccc3F)O[C@@H]2CO)cc1 | 3 | 0 | -2.8 | i | nt | 2.5 | nt | nt | nt
COCC(=O)Nc1ccc2c(c1)OC[C@@H](C)N(Cc1ccccn1)C[C@H](C)[C@@H](OC)CN(C)C2=O | 3 | -1 | 0.4 | i | nt | -3.3 | nt | nt | nt
O=C(NCc1cccnc1)c1csc([C@@H]2C[C@H](O)[C@@H](CO)O2)n1 | 6 | 26 | 0.4 | i | nt | -2.8 | nt | nt | 2.8
CCCCn1c(N)c(N(CC(C)C)C(=O)c2c(-c3ccccc3)noc2C)c(=O)[nH]c1=O | 3 | 2 | -0.6 | i | 0.68 | 4.0 | 6% | 0 | 6.1
COc1ccccc1-n1c(SCC(=O)O)nc2c(sc(=S)n2-c2ccc(Cl)c(C)c2)c1=O | -34 | -33 | -11 | i | 0.64 | -2.3 | 5% | -5 | -0.2
CC(=O)NCCNc1nc2cc(-c3ccccc3)sc2c(=O)n1C | -14 | -13 | -3.0 | i | nt | -2.0 | nt | nt | -0.2
COc1ccccc1CNC(=O)CN1CCC(NC(=O)c2ccccc2F)CC1 | nt | nt | nt | nt | 0.68 | nt | 2% | -2 | 1.0
COc1ccc(S(=O)(=O)CC(=O)c2cc3cccc(C)c3oc2=O)cc1 | nt | nt | nt | nt | 0.69 | nt | nt | 14 | -0.6
COc1ccc(NC(=O)C2=CC(c3ccco3)=NS(=O)(=O)N2C)cc1 | 0 | 0 | -1.4 | i | 0.75 | 6.2 | -4% | nt | 5.4
COc1ccc(C2=NOC(Cn3nc(-c4ccccc4C)cc3C(=O)O)C2)cc1 (centres undefined) | -18 | -23 | -3.1 | i | 0.71 | -15 | nt | -1 | -2.5
O=C1CCC([N+](=O)[O-])C(c2ccc(Cl)cc2Cl)N1 (centres undefined) | nt | nt | nt | nt | 0.75 | nt | 8% | 4 | 2.0
O=C(CSc1nc(C(F)(F)F)cc(=O)[nH]1)N1CCCCCC1 | -3 | -8 | 0.2 | i | 0.68 | -0.6 | 0% | -2 | 0.1
COc1cccc(NC(=O)N[C@H]2CC[C@@H](CC(=O)Nc3ccccc3)O[C@H]2CO)c1 | -2 | -3 | 0.0 | i | nt | 2.1 | nt | nt | nt
Cc1ccc(C)c(N2N=C(C(=O)Nc3ccccc3N3CCOCC3)CCC2=O)c1 | -10 | -8 | 4.1 | i | 0.68 | 7.9 | 1% | -16 | -2.2
CCC(=O)N1CCN(c2ccc(Cl)cc2NC(=O)Cc2ccccc2)CC1 | nt | nt | nt | nt | 0.76 | nt | 5% | nt | -1.3
Fc1cccc(CCN2CCNC[C@@H]2c2ccccc2)c1 | 2 | -5 | -0.6 | i | 0.74 | 0.7 | nt | -3 | -0.9
Cc1cc(OCc2cc(C(=O)N(C)C3CCOCC3)no2)cc(C)c1Cl | -6 | -1 | -0.7 | i | 0.66 | 0.9 | 21% | -2 | -3.4
O=C(C[C@@H]1C=C[C@H](NC(=O)Cc2cccnc2)[C@H](CO)O1)NCc1ccc2c(c1)OCO2 | 8 | 17 | 0.2 | i | nt | 1.4 | nt | nt | nt
COc1ccc(C(=O)OCC(=O)NCc2ccc3c(c2)OCO3)cc1[N+](=O)[O-] | nt | nt | nt | nt | 0.69 | nt | 13% | -5 | 3.0
CCCCCOC(=O)C1=C(C)Nc2nnnn2C1c1ccc(OC)c(OC)c1OC (centres undefined) | -49 | -69 | -25 | i | 0.69 | 13 | 15% | 2 | 4.0
COc1ccc(C(=O)OCC(=O)NCCc2ccc(F)cc2)cc1S(=O)(=O)N1CCOCC1 | 6 | 2 | 3.6 | i | 0.71 | -0.3 | nt | nt | -0.4
O=C(N/N=C/c1ccc2nccnc2c1)c1cccc([N+](=O)[O-])c1 | 9 | 7 | 3.1 | i | nt | -5.5 | -77% | -2 | 0.2
C[C@@H]1CCCCO[C@H](CN(C)S(=O)(=O)c2cccs2)[C@@H](C)CN([C@@H](C)CO)C(=O)c2cc(NC(=O)Nc3ccc(C(F)(F)F)cc3)ccc2O1 | 2 | 8 | -0.8 | i | nt | -0.2 | nt | nt | nt
CC(C)CC#Cc1cnc2c(c1)C(=O)N([C@@H](C)CO)C[C@@H](C)[C@H](CN(C)C(=O)Cc1cccnc1)O2 | -6 | -4 | 1.1 | i | nt | -3.3 | nt | nt | nt
O=C(NCc1ccco1)C1CCCN1C(=O)Nc1ccccc1 (centres undefined) | 8 | 8 | 4.2 | i | 0.6 | -0.2 | 9% | 3 | 4.7
O=C(C[C@@H]1C=C[C@H](NC(=O)C2CC2)[C@@H](CO)O1)NCCCN1CCOCC1 | 2 | 6 | 2.0 | i | nt | -15 | nt | nt | nt
Fc1cccc(CSc2ccc(-c3ccco3)nn2)c1 | nt | nt | nt | nt | 0.69 | nt | -16% | 50 | -1.0
COc1ccc2c3c([nH]c2c1)[C@H](CO)N(C(C)=O)CC31CCN(C(C)=O)CC1 | 3 | 11 | -1.8 | i | nt | 0.2 | nt | nt | nt
COc1ccc(CCNC(=O)c2ccccc2OCc2c(C)noc2C)cc1 | -7 | -7 | -0.3 | i | 0.61 | 0.7 | -20% | -10 | -1.4
CCn1c(COc2ccccc2OC)nnc1SCC#N | nt | nt | nt | nt | 0.65 | nt | 10% | -8 | -0.9
Clc1ccc2nc(-c3ccco3)c(Cc3ccccc3)n2c1 | nt | nt | nt | i | nt | -2.6 | nt | nt | -0.2
COc1ccc(S(=O)(=O)Nc2ccncc2)c(C)c1C | 3 | 8 | -1.0 | i | nt | -2.5 | 0% | nt | 2.3
CCN1CCN(c2ccc(S(=O)(=O)N3CCCCC3)cc2NC(=O)/C=C/c2cccc(OC)c2OC)CC1 | -20* | 2.2* | 8.7* | i | 0.69 | 21 | -1% | -24 | 4.4
O=C(C[C@@H]1CC[C@H](NC(=O)Cc2cccnc2)[C@H](CO)O1)NCc1ccc2c(c1)OCO2 | 0 | -8 | 0.9 | i | nt | -14 | nt | nt | nt
Cc1nnc(SCCC(C)C)[nH]c1=O | nt | nt | nt | nt | 0.68 | nt | ? | -2 | -1.1
COc1ccc(-n2c(SCC(=O)Nc3ccc(NC(C)=O)cc3)nc3ccccc3c2=O)cc1 | -6 | -3 | 3.1 | i | 0.67 | -0.8 | -19% | nt | 0.5
CCOC(=O)c1[nH]c2ccccc2c1NC(=O)COC | 2 | -3 | 1.9 | i | 0.7 | -9.2 | -5% | nt | 2.3
Cc1ccc(Sc2ncccc2C(=O)O)c(C)c1 | nt | nt | nt | nt | 0.71 | nt | 9% | 24 | -5.0

Next part:
SMILES | Ecoli rRNA inh | Ecoli rRNA inh OD600 | Ecoli rRNA inh RFP | FGF22 binding | Ecoli growth | MLL AF4-AF9 inh | Vif A3G | ALR inh | HNF4A DNA FP
CC1CN(C(=O)c2cccc(S(=O)(=O)Nc3cc(Cl)ccc3Cl)c2)CC(C)O1 (centres undefined) | -9 | -4 | -2.1 | i | 0.7 | -0.9 | -1% | 3 | -0.3
COCC(=O)N1[C@H](C#N)[C@@H](c2ccccc2-c2cccc(F)c2)[C@@H]1CO | 3 | -9 | -3.0 | i | nt | -2.0 | nt | nt | nt
CCOC(=O)[C@H]1[C@H]2COc3ccc(C)cc3[C@@H]2N2C(=O)c3cc(Br)ccc3NC(=O)[C@@]12C | -3 | -3 | 4.0 | i | nt | -28 | nt | 1 | -7.2
CC(C)(O)C(=O)NNC(=S)Nc1cccc(C(F)(F)F)c1 | 9 | 2 | 1.5 | i | 0.71 | -2.3 | 9% | nt | -0.6
COc1ccc(CNC(=O)[C@H](CCSC)NC(=O)N2CCn3c2nc2ccccc23)cc1 | -4 | -2 | 0.8 | i | 0.65 | 3.6 | nt | -16 | 4.5
COc1cc(C(=O)N(Cc2cc3ccccc3[nH]c2=O)CC2CCCO2)cc(OC)c1OC (centres undefined) | nt | nt | nt | nt | 0.71 | nt | -5% | -20 | 0.2
Cn1nc(C(C)(C)C)cc1C(=O)NCc1ccc2c(c1)OCO2 | 9 | 3 | 2.0 | i | 0.64 | -2.3 | 5% | -2 | 0.3
CCc1ccc(N2C(=O)CC(N3CCN(Cc4ccc5c(c4)OCO5)CC3)C2=O)cc1 (centres undefined) | 6 | 4 | -4.1 | nt | 0.73 | 0.7 | -3% | 0 | 2.3
C[C@H](CO)N1C[C@H](C)[C@@H](CN(C)Cc2ccccc2)Oc2ccc(NS(=O)(=O)c3cccs3)cc2CC1=O | -2 | -17 | 4.6 | i | nt | 1.5 | nt | nt | nt
COc1ccc(-c2cc(C(F)(F)F)n3nc(C(=O)N4CCCCC4)cc3n2)cc1 | nt | nt | nt | nt | 0.7 | nt | 1% | -3 | -0.2
C[C@@H]1CN([C@H](C)CO)S(=O)(=O)c2ccc(C3=CCCCC3)cc2O[C@H]1CN(C)Cc1ccccc1F | 9 | 2 | 0.1 | i | nt | 9.8 | nt | nt | nt

Not all compounds are listed; count on the stated rates, not on these rows.
